Assay outcomes: PubChem BioAssay, ICCB-Longwood Screening Facility, Harvard Medical School
HCMV UL50-53 inh: disrupts HCMV UL50-UL53 complex binding | HTRF UL50-UL53 interaction, normalized percent inhibition | 190,000 tested, 0.15% active | inhibition, % (concentration not given with the values);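 active = both replicates at 50% or more, plus weaker picks with an unusually low signal ratio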;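 note: stock transfer was 100 nL into about 20 µL; 0% = negative control wells and 100% = wells with untagged competitor protein; inactives centre near -12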
GIV Gai3 FP: inhibitors of GIV GBA-motif binding to rat Galpha-i3. P08753. 210,000 tested, 0.42% active. percent of control (FP), % (no concentration beside the values). Galpha-i3/FITC-GIV peptide fluorescence polarization, 90 min; stronger effect = lower value; scaled: aluminum fluoride 0%, vehicle 100%;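 active = replicate mean at 85% of control or lower, very high polarization wells dropped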;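 note: wells of about 15 µL received 100 nL stock; the first replicate is given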
Target sequence (P08753 whole entry, looked up): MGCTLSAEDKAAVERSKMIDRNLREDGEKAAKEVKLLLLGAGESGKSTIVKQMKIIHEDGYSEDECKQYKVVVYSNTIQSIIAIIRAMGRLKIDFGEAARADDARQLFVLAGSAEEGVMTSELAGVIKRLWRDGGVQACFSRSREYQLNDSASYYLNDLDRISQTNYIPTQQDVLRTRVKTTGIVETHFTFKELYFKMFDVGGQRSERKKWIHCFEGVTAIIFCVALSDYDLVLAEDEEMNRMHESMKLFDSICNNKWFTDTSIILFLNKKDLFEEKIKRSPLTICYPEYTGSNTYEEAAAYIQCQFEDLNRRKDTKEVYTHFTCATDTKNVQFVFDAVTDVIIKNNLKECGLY
Sa growth 42C: S. aureus growth inhibition; S. aureus RN4220 growth, OD600, 20 h, 42 °C; stronger effect = lower value; relative growth, % (no concentration beside the values); 170,000 tested, 0.53% active; AID 720641;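 active = growth at 42 °C up to 50% and 20 or more points under that at 30 °C, or under 10% at both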;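 note: 300 nL library stock went into each well; scaled to the means of positive and negative controls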
Sa growth 42C second temp: recorded beside Sa growth 42C, whose call it bears; relative growth, %; measured here: growth at 30 °C;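 optical density after 20 h as mean of two plates; 100% = untreated growth and lower means inhibition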
* hit, by the source's call; . = not tested or not shown; & = joins results of further samples.

The opening three compounds as a preview:
smiles,HCMV UL50-53 inh,GIV Gai3 FP,Sa growth 42C,Sa growth 42C second temp
O=C1CCCC/C1=N\Nc1ccc(CN2CCCCC2)cc1,-56,97,97,108
COc1cccc(-n2c(C)c(C)c3c2ncn2nc(C(C(C)C)N4C(=O)c5ccccc5C4=O)nc32)c1 (stereo not drawn),-17,106,.,.
Cc1[nH]ncc1-c1ccccc1Cl,-4,111,130,90

The whole of this part, repeating the preview:
smiles,HCMV UL50-53 inh,GIV Gai3 FP,Sa growth 42C,Sa growth 42C second temp
O=C1CCCC/C1=N\Nc1ccc(CN2CCCCC2)cc1,-56,97,97,108
COc1cccc(-n2c(C)c(C)c3c2ncn2nc(C(C(C)C)N4C(=O)c5ccccc5C4=O)nc32)c1 (stereo not drawn),-17,106,.,.
Cc1[nH]ncc1-c1ccccc1Cl,-4,111,130,90
CC1=C(C(=O)OCCOc2ccccc2)C(c2ccc([N+](=O)[O-])cc2)NC(=O)N1C (stereo not drawn),-25,102,.,.
O=C(CON1C(=O)CCC1=O)Nc1cccc2ccccc12,-18,106,105,99
CC(=O)CSc1nnc2[nH]c(=O)cc(N)n12,.,104,117,85
Cc1nc(-c2cc(S(=O)(=O)Nc3ccc(Cl)cn3)c(C)s2)no1,-26,102,.,.
O=C(CSc1ncccc1C(=O)N1CCC(Cc2ccccc2)CC1)c1ccccc1,.,98,110,73
CCN(CC)c1ccc(NS(=O)(=O)c2cc3[nH]c(=O)c(=O)[nH]c3cc2C)c(C)c1,.,105,127,91
COc1ccccc1N1CCN(C(=O)CSc2n[nH]c(-c3ccccc3)n2)CC1,.,103,76,96
Cc1ccn2c(=O)c(C(=O)NCc3ccccc3Cl)c(O)nc2c1,-7,101,90,92
Cc1ccc(N2CCN(C(=O)c3c(C)oc4ncnc(N5CCCCC5)c34)CC2)c(C)c1,.,104,99,94

The list continues:
smiles,HCMV UL50-53 inh,GIV Gai3 FP,Sa growth 42C,Sa growth 42C second temp
COc1ccccc1N1CCN(CCCOc2cc(C)ccc2C(C)C)CC1,-7,105,102,70
CC(C)CN1CC23C=CC(O2)C(C(=O)OC(C)C)C3C1=O (stereo not drawn),16,107,103,102
CN(CC(=O)O)S(=O)(=O)c1cccs1,-6,107,120,86
O=C1NC(=O)C(c2ccccc2)N1 (stereo not drawn),-9,100,112,83
O=C(Nc1cccc2nsnc12)c1[nH]nc2c1COc1ccccc1-2,1,99,.,.
COc1ccc(-c2nnc(SCC(=O)N(C)C3CCCCC3)o2)cc1OC,-26,100,100,81
c1ccc2c(NC3C4CC5CC(C4)CC3C5)nc(N3CCOCC3)nc2c1 (stereo not drawn),-17,101,97,64
CC1CN(C(=O)/C=C/c2cccc3ccccc23)CC(C)O1 (stereo not drawn),-66,106,98,92
Cc1ccc(Nc2cc(N3CCN(C(=O)COc4ccc(Cl)c(C)c4)CC3)ncn2)cc1,-12,101,.,.
COC(=O)c1cc(C)nc2c1c(C)nn2-c1ccccc1,54,103,.,.
Cc1ccc2c(c1)N(C(=O)CCC(=O)NCc1cccs1)CC(C)O2 (stereo not drawn),4,100,118,86
O=C(Nc1ccc(Br)cc1)c1c[nH]c2ccccc2c1=O,1,.,89,87

The list continues:
smiles,HCMV UL50-53 inh,GIV Gai3 FP,Sa growth 42C,Sa growth 42C second temp
O=C(CSC1=NCCS1)N1CCCC1,5,.,119,97
CCN1C(=O)c2ccccc2S(=O)(=O)c2ccc(C(=O)NCc3ccc(F)cc3)cc21,-33,101,93,75
Nc1ccc2nc(SCC(=O)n3c4c(c5ccccc53)CCCC4)sc2c1,-3,104,95,98
Cc1c(C)n(Cc2ccccc2)c2ccc(C(=O)NC(C)c3ccccc3)cc12 (stereo not drawn),.,106,118,92
O=C1CCC(NC(=O)OCc2ccccc2)(C(=O)OCc2ccccc2)O1 (stereo not drawn),.,99,76,90
Cc1cccc(Cn2c(=O)n(CC3CCC(C(=O)NC(C)C)CC3)c(=O)c3sccc32)c1 (stereo not drawn),.,98,82,92
COc1cc2c(=O)n(Cc3ccc(C(=O)NCCC(C)C)cc3)c(=O)n(CC(=O)NC(C)C)c2cc1OC,-17,104,.,.
N#Cc1c(-c2ccccc2)c2c([nH]c1=O)-c1ccccc1CC2,24,100,96,78
CS(=O)(=O)Nc1ccc(N2CCN(c3cccc(Cl)c3)CC2)c(C(=O)O)c1,6,105,.,.
Fc1ccc(-c2nc(-c3cccs3)c(-c3cccs3)[nH]2)cc1,-21,101,102,89
O=c1nc2s/c(=C\c3cccs3)c(=O)n2nc1Cc1ccccc1,.,100,94,87
O=C1CC(N2c3cccc4cccc(c34)S2(=O)=O)C2COC1O2 (stereo not drawn),-26,.,76,80

Retrieved by structure from the entries so far, two records:
smiles,HCMV UL50-53 inh,GIV Gai3 FP,Sa growth 42C,Sa growth 42C second temp
Cc1cccc(Cn2c(=O)n(CC3CCC(C(=O)NC(C)C)CC3)c(=O)c3sccc32)c1 (stereo not drawn),.,98,82,92
COc1cc2c(=O)n(Cc3ccc(C(=O)NCCC(C)C)cc3)c(=O)n(CC(=O)NC(C)C)c2cc1OC,-17,104,.,.

Profiles, looked up by structure. Screens in order: HCMV UL50-53 inh, GIV Gai3 FP, Sa growth 42C, Sa growth 42C second temp
Shown for `Cc1c(C)n(Cc2ccccc2)c2ccc(C(=O)NC(C)c3ccccc3)cc12` (stereo not drawn) → ., 106, 118, 92
Shown for `O=c1nc2s/c(=C\c3cccs3)c(=O)n2nc1Cc1ccccc1` → ., 100, 94, 87

Additional entries.
smiles,HCMV UL50-53 inh,GIV Gai3 FP,Sa growth 42C,Sa growth 42C second temp
N#Cc1c(F)cccc1C(C#N)c1cccs1 (stereo not drawn),-27,107,.,.
Cc1ccccc1OCC(=O)N(Cc1ccc(C(C)C)cc1)C1CCS(=O)(=O)C1 (stereo not drawn),-12,98,89,88
NC(=O)COc1ccc(/C=N/NC(=O)c2ccc(CN3CCOCC3)cc2)cc1,-28,99,85,100
COc1ccccc1-n1nnnc1SCC(=O)NC1CCCCC1,-20,102,99,102
CCN1C(=O)C(Cc2c[nH]c3ccccc23)NC1=S (stereo not drawn),-1,109,98,100
COC(=O)c1ccc(Cn2c(SCc3ccccc3)nc3ccncc32)cc1,0,99,102,94
Nc1nc(CSc2nnc(-c3cccc(Br)c3)o2)nc(Nc2ccccc2)n1,-17,101,92,66
Cn1c(CN(c2ccc(F)cc2)S(C)(=O)=O)nnc1SCC(=O)Nc1ccc(F)c(Cl)c1,-16,101,.,.
COc1cc(/C=N/N(C)C(=S)Nc2cccc(Cl)c2C)cc(OC)c1OC,-4,106,100,91
COCCn1ccc2nc(C)c(C(=O)N3CCN(c4ccccn4)CC3)cc2c1=O,-18,104,.,.
O=S(=O)(c1ccc(Cl)cc1)n1cnc2ccccc21,.,99,93,93
CCOC(=O)C1=C(c2ccccc2)N(C)C(=O)NC1c1ccccc1F (stereo not drawn),5,101,121,119

(cont.)
smiles,HCMV UL50-53 inh,GIV Gai3 FP,Sa growth 42C,Sa growth 42C second temp
CCc1ccc(NC(=O)Cn2nc(C)n3cccc3c2=O)cc1,-22,100,92,86
Cc1ccccc1NC(=O)C1CCC(CNS(=O)(=O)c2ccc3c(c2)C(C)(C)C(=O)N3C)CC1 (stereo not drawn),.,112,93,84
CCOC(=O)c1sc(Nc2nc3ccc(OC)cc3s2)cc1C,.,110,89,79
COc1nc2c(c(-c3ccco3)c1C#N)Cc1ccccc1-2,-15,104,101,93
COc1ccc(Nc2nnc(-c3ccc(Cl)cc3)c3ccccc23)cc1C(N)=O,-14,103,.,.
CCN1CCN(C(=O)C2CCCCC2C(=O)O)CC1 (stereo not drawn),-29,102,92,82
N=c1c2c(-c3ccccc3)c(-c3ccccc3)n(Cc3ccco3)c2ncn1CCO,28,106,75,53
O=C(NCCc1ccc(Cl)cc1)c1ccco1,5,87,90,108
O=C(Cc1ncn[nH]1)NCCc1ccccc1,-34,102,81,89
COc1cccc(/C=C2/C(=O)NN(c3ccccc3)C2=O)c1,.,93,104,80
CC(C)CNc1cc(N2CCCC2)c2noc3c2c1C(=O)c1ccccc1-3,-35,133,105,82
OC(CN1CCOCC1)C(F)(F)F (stereo not drawn),-12,105,.,.

New compounds follow.
smiles,HCMV UL50-53 inh,GIV Gai3 FP,Sa growth 42C,Sa growth 42C second temp
CCCc1nnc(C(=O)Nc2ccc(C(=O)NCc3ccccn3)cc2)s1,-20,94,.,.
Cc1ccc(CSCC(=O)Nc2ccc3c(c2)OCO3)cc1,-9,104,107,105
CCOC(=O)c1c(C)n(S(=O)(=O)c2ccc(C)cc2)c2ccc(NS(=O)(=O)c3ccc(C)cc3)cc12,-40,109,98,86
N#CCc1ccc(NS(=O)(=O)c2ccc(N3CCCC3=O)cc2)cc1,-16,94,99,78
Cc1cc(C)cc(NC(=O)c2c(C)oc3nc(C)nc(N4CCCC4)c23)c1,.,108,105,88
O=[N+]([O-])c1ccc(-c2nc(-c3ccc(F)cc3)c(-c3ccncc3)[nH]2)cc1,-32&-15&-15&-26,111,.,.
CCOC(=O)Cn1cnc2c(cnn2-c2ccc(C)c(C)c2)c1=O,-32,104,100,86
C=CCNC(=O)c1sc2cc(Cl)ccc2c1Cl,-19,.,110,90
O=C(Nc1cccc(Cl)c1)C1CCCN1S(=O)(=O)c1cccc2nsnc12 (stereo not drawn),-74,100,.,.
CCOc1cc(/C=C(/C#N)c2cccc(Br)c2)ccc1OCc1ccc(C(=O)O)o1,-122,106,15,12
CC(N)c1ccco1 (stereo not drawn),-3,.,87,99
CC(C)C(NC(=O)C12CC3CC(CC(C3)C1)C2)C(=O)NC1=NCCS1 (stereo not drawn),-14,105,106,92

(next part)
smiles,HCMV UL50-53 inh,GIV Gai3 FP,Sa growth 42C,Sa growth 42C second temp
CCC1SC(CC)C(=O)N(CC(=O)Nc2cccc(C)c2)C1=O (stereo not drawn),-30,99,94,90
c1ccc(CN2CN(CC3CCCO3)c3nc4ccccc4n3C2)cc1 (stereo not drawn),-27,100,.,.
Cc1nc2ccccc2n1CC(=O)NC(C)C1CC2CCC1C2 (stereo not drawn),-5,.,113,88
O=S(=O)(c1ccc(-c2noc(-c3ccc4c(c3)OCO4)n2)cc1)N1CCOCC1,-6,113,.,.
Cc1ccc(CCNC(=O)c2oc(=O)c3ccccc3c2-c2ccc(C)cc2)cc1,-15,103,112,86
CCOC(=O)C1=C(C)N=c2s/c(=C\c3ccc(OC(C)=O)cc3OC(C)=O)c(=O)n2C1c1cccc([N+](=O)[O-])c1 (stereo not drawn),-14,107,.,.
CCC(C)NC(=O)CCc1nc2ccccc2n1-c1ccccc1 (stereo not drawn),-11,.,92,92
CCc1ccc(CNc2nc(-c3nnc(-c4ccc(C)cc4)o3)nc3ccccc23)cc1,-9,95,.,.
COc1ccc(-n2ncc(C(=O)NCc3ccco3)c2C2CCN(C(=O)OC(C)(C)C)CC2)cc1,.,112,119,89
Cc1cccc(CNC(=O)CCC(=O)N2Cc3cccn3-c3ccccc32)c1,-32,106,.,.
CCn1c(C(=O)Nc2ccc(C)cc2C)cc2sc(Cl)cc21,9,104,103,90
O=C(Cc1ccccc1)N1CCc2ccccc21,10,104,94,96

More records follow:
smiles,HCMV UL50-53 inh,GIV Gai3 FP,Sa growth 42C,Sa growth 42C second temp
CC1C/C(=N\O)C(C(C)C)C/C1=N/O (stereo not drawn),-35,.,111,84
COc1ccc(-c2nc3ccccc3c(=O)n2NC(=O)c2ccc(OC)c([N+](=O)[O-])c2)cc1OC,-43,110,.,.
CC(C)=CC(=O)Nc1nnc(-c2ccccc2)s1,-9,102,101,80
CCn1ccc2cc(S(=O)(=O)N3CCCN(C(=O)Nc4cc(Cl)ccc4C)CC3)ccc21,.,99,105,95
O=C(COc1ccc2c(c1)OCO2)NC1CCCc2ccccc21 (stereo not drawn),-32,.,60,42
COCCNc1cc(N2CCN(C3CCCCC3)CC2)c2noc3c2c1C(=O)c1ccccc1-3,-121,284,96,90
Cc1cccc(NC(=O)CSc2nccn2-c2cccc(Cl)c2)c1C,.,102,108,89
Cc1ccc(C)c(C(=O)N2CCC(c3nc4c(nnn4Cc4ccccc4)c(=O)[nH]3)CC2)c1,10,102,3.7*,5.2*
Cc1ccc(N(C)C(=O)Cn2cc(S(=O)(=O)N3CCCC3)c(S(=O)(=O)N3CCCC3)c2)cc1,.,99,83,84
NC1=NC(c2ccncc2)n2c(nc3ccccc32)N1 (stereo not drawn),.,103,105,91
CC(C)/C=C(/C(=O)c1ccc(Cl)cc1Cl)n1cncn1,.,124,85,71
CCOC(=O)C1CCN(C(=O)c2ccc(NS(=O)(=O)c3ccc(OCC)cc3)cc2)CC1,-15,.,88,94

Later entries.
smiles,HCMV UL50-53 inh,GIV Gai3 FP,Sa growth 42C,Sa growth 42C second temp
Cc1ccc(C)c(N2C(=O)N(Cc3ccccc3C)c3ccccc3S2(=O)=O)c1,.,108,99,113
O=c1[nH]c(SCCO)nc2c1cnn2-c1ccc(F)cc1,-4,98,118,90
CCOc1ccc(S(=O)(=O)N(C(=O)c2ccncc2)c2ccc3oc(C)c(C(=O)OC)c3c2)cc1,3,105,101,97
CCOC(=O)C1CCN(C(=O)CSc2c3c(nc4ccc(Cl)cc24)CCCC3)CC1,-7,102,102,75
CCCC(C(N)=O)C1=NC2(CCCCC2)Cc2ccccc21 (stereo not drawn),-3,.,105,101
CCc1nn(CC(=O)N2CCCCC2)c(=O)c2cc3sccc3n12,-21,99,98,85
COc1cccc(C(=O)NCc2ccccc2OC)c1,-21,.,109,96

Outcome played no part in choosing rows; overall some 0.85% were active at least once.
